Screening results: PubChem BioAssay, National Center for Advancing Translational Sciences (NCATS)
gsp antagonist: antagonizes gsp, the McCune-Albright syndrome mutation; gsp-mutant cells, cAMP HTRF, 30 min; control for the full effect not named in the record; Potency, µM (doses to about 76.9 µM), for inactives: at the top dose activity change, negative = inhibition, hits mostly inhibitors; 0.4% of 340,000 active; active = falling curve of any shape with a large fitted effect; inconclusive = falling curve, mostly with a smaller effect; inactive = flat or rising curve; cell line not stated here;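 also: intracellular cAMP measured with PDE inhibitor Ro 20-1724 present during compound exposure; potency is read from the fitted curve at half-maximal effect; % is scaled to controls: 0 for no effect and ±100 for the full control effect; nearly all actives have a fitted effect of over 65% in size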
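HTRF cAMP measurement after 30 min RT detection following 30 min, 37C compound treatment alongside […] (added as 300 uM solution) in G418-selected cells seeded at 2000/well and grown 16–24 h.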
Menin MLL FP FL: displaces fluorescein MLL peptide from human menin; Fluorescence polarization, fluorescein-MLL peptide displacement from menin; FP activity change, % at 61.4 µM; 290,000 tested, under 10 active; AID 1766; inconclusive = falling polarisation curve, or a change in total fluorescence; inactive = total fluorescence flat and polarisation flat or rising; no compound was filed as active; the % refers to the polarisation; negative = inhibition;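 also: % of control where 0% means no effect; inhibitors lower the polarisation; unlabelled MLL peptide was the positive control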
ClpP mod: qHTS Assay for Activators of ClpP; ATP-dependent Clp protease proteolytic subunit (Bacillus subtilis (strain 168)), P80244; Potency, µM (top dose mostly 57.5 µM), for inactives: top-dose activity change, negative = active; AID 651965, 2013; purified B. subtilis ClpP, FRET peptide cleavage, 20 min; 1.9% of 340,000 active; active = well fitted falling curve with a large enough effect; inconclusive = small, poorly fitted or top-dose-only effect; inactive = no such curve, though single readings can be large or run the other way; also: potency is read from the fitted curve at half-maximal effect; the source files actives as falling curves though it sought activators and does not explain the sign; nearly all actives have a fitted effect of over 65% in size; many hits overshoot -100%
Target sequence (P80244 whole entry, looked up): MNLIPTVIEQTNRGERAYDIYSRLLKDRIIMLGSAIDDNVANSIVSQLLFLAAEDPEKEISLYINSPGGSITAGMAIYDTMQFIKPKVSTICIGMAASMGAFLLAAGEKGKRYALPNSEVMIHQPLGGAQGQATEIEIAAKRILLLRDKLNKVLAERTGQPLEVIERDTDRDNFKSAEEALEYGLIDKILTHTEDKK
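FRET quenching reversal measured ClpP activation: 10 microg/mL B. subtilis ClpP at pH 8 with the FRET-FV decapeptide, read at 430 nm after 320 nm excitation. The 20-min minus 0-min signal was scaled between DMSO/no-enzyme wells and ADEP (5.8 microM final).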
Sfp inh: Sfp phosphopantetheinyl transferase inhibition | Potency, µM, without a hit: max response, negative = inhibition, actives largely listed as inhibitors | 3.5% of 310,000 active | Biochemical Sfp PPTase activity, qHTS | Q9F4F7 | AID 1490; active = well fitted inhibition curve with a large enough effect; inconclusive = small, poorly fitted or top-dose-only effect, or another doubt; inactive = no such curve, though single readings can be large or run the other way;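 also: the enzyme is Sfp with the accession as filed and its product quenches rhodamine fluorescence; potency is read from the fitted curve at half-maximal effect; 0% = enzyme reaction without inhibitor and -100% = no enzyme wells; top concentration of the series not given in the record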
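Compounds were incubated with enzyme (final 15 nM) for 15 min at room temperature before substrate addition started the reaction. Fluorescence at 525 nm excitation, 598 nm emission was recorded immediately and after 30 minutes.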
PINK1 modulator: changes PINK1 expression. AID 624263. PINK1 immunofluorescence, high-content cytometry, 24 h. Potency, µM (doses to about 76.6 µM), inactives show at the highest dose activation (PINK1 increase), usual class: activators. 0.2% of 410,000 active; active = well fitted activation curve with a large enough effect; inconclusive = small, poorly fitted or top-dose-only effect; inactive = flat fitted curve, though single readings scatter; cell line not stated here;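 also: potency is read from the fitted curve at half-maximal effect; % of control where 0% means no effect; nearly all actives have a fitted effect of over 65% in size; a mitochondrial uncoupler was the plate control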
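Stable cell line, 250 cells/well, 12 h attachment; compounds pinned at 5 concentrations, 24 h; CCCP control. Fixed with nuclear dye, primary antibodies 12 h at 10 degrees C, secondary plus cell stain; laser-scanning cytometer read.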
gsp ag: gsp mutant agonism | gsp mutant cells, cAMP HTRF, 30 min; control for the full effect not named in the record | Potency, µM (series often up to 76.9 µM), for inactives: at the top dose activation (cAMP increase), usual class: activators | 0.13% of 340,000 active | AID 624287; active = well fitted activation curve with a large enough effect; inconclusive = small, poorly fitted or top-dose-only effect, or another doubt; inactive = no such curve, though single readings can be large or run the other way; cell line not stated here;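 also: phosphodiesterase inhibitor Ro 20-1724 added with compounds to block cAMP breakdown; potency is read from the fitted curve at half-maximal effect; nearly all actives have a fitted effect of over 60% in size; about a fifth of the inactives were tested at one dose only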
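Cells in DMEM/10% FBS with G418 were pretreated with compounds in DMSO plus […] (300 uM stock) for 30 min at 37C. cAMP was measured by HTRF (cAMP-d2 plus anti-cAMP antibody-K) after 30 min at room temperature.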
D2 ag: activates the human D2 dopamine receptor. activation, % (no concentration beside the values). DiscoveRx PathHunter D2 beta-arrestin, luminescence, 90 min; 100% = 57 uM dopamine signal. 0.084% of 360,000 active. AID 624465. P14416; in the data active = activation above about 40%; inconclusive = about 15% to 40%; inactive = below about 15%; also: compound concentration not given in the record; the text of the record calls up to 30% inactive
Target sequence (P14416 whole entry, looked up): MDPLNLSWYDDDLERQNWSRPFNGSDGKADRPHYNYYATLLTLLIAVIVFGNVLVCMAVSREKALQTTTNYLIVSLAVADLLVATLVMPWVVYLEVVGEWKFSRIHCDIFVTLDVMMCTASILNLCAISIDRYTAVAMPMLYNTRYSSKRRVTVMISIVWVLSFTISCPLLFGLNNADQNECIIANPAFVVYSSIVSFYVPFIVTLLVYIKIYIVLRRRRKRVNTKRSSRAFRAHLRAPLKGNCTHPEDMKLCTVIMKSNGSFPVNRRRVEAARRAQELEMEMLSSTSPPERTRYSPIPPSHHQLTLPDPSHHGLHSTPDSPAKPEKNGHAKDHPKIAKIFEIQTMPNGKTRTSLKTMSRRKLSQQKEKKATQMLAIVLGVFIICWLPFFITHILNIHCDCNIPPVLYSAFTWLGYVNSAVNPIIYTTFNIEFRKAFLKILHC
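Agonist mode: compounds alone added to overnight-plated D2 PathHunter cells for 90 min at 37 C, with 57 uM final dopamine (EC100) defining full response. Beta-arrestin recruitment detected by chemiluminescent reagent, read after 1 h at ambient temperature.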
Starred values were filed as active, the others as inactive; ? = inconclusive; / = no result given; [ ] = remark or other dose.

SMILES	gsp antagonist	Menin MLL FP FL	ClpP mod	Sfp inh	PINK1 modulator	gsp ag	D2 ag
O=C(NC(=S)Nc1ccccn1)c1ccccc1	-4%	-1.1	8.7%	?	1.0%	?	-2.1
CCOCCCNS(=O)(=O)c1ccc2c(c1)CCN2C(C)=O	-15%	-1.8	0.4%	4%	1.6%	-8%	-4.0
Cc1ccc(S(C)(=O)=N/C=C2\C(=O)c3sccc3N(C)S2(=O)=O)cc1 (stereo not drawn)	8%	0.9	70%	12%	-0.7%	3%	-11
C=CC[C@H](CC(=O)N(CCO)Cc1ccccc1)C(=O)NCCOC(=O)[C@H](CC=C)CC(=O)OC(C)(C)C	-6%	/	0.3%	/	0.9%	/	0.3
C/C=C/C=C/C(=O)N1CC2(CC(c3cccc(NC(=O)/C=C/C)c3)=NO2)C[C@@H]1C(N)=O (stereo partly drawn)	10%	5.4	0.7%	28µM*	1.3%	/	0.3
O=C(Cc1ccccc1F)NCC(c1ccco1)N1CCCCC1 (stereo not drawn)	0%	5.7	/	17%	0.9%	-5%	1.0
Nc1nonc1-c1nc2ccccc2n1CC(=O)O	9%	1.5	-6.2%	8%	-1.6%[38.3 µM]	-19%	-1.3
COc1cccc(C(=O)NC2CCN(CC(=O)Nc3ccccc3Cl)CC2)c1	-30%	-10.0	0.0%	5%	2.0%	27%[15.4 µM]	-1.9
CCCCC(=O)Nc1ccc(C(=O)NNC(=O)CCCOc2ccc(Cl)cc2Cl)cc1	5%	1.1	-1.3%	3%	1.3%	-24%	-3.2
Cc1cccc(-n2ncc3c(N(C)C4CCCCC4)ncnc32)c1	-20%	0.6	?	-15%	13%	2%	1.6
CCOC(=O)/C(N)=C/c1ncc(C(F)(F)F)cc1Cl	0%	1.7	-0.2%	5%	?	-3%	-3.3
Cc1cc(C(F)(F)F)c2c(N)c(C(=O)NC3CC3)sc2n1	1%	-0.5	0.3%	-10%	0.5%	-3%	-2.4
NC(=O)c1c(NC(=O)c2ccccc2)sc2c1CCCC2	-7%	1.9	-12%	4%	9.5%	4%	-7.1
CSCCC(NC(=O)c1ccc([N+](=O)[O-])cc1Cl)C(=O)OC1CCCCC1=O (stereo not drawn)	-2%	/	0.1%	11%	0.0%	3%	-0.1
O=C(CCc1ccc(S(=O)(=O)N2CCOCC2)cc1)OCC(=O)c1ccc(Br)cc1	-8%	/	-1.3%	/	-0.2%	-5%	2.4
CCN(CC(=O)Nc1c(F)cccc1F)C(=O)c1csc2c1CCCC2	-3%	/	1.3%	/	2.3%	2%	-4.6
COc1ccc(NC(=O)C(=O)NCCCn2ccnc2)cc1	-21%	-1.2	0.1%	8%	0.7%	20%[15.4 µM]	-2.4
Nn1c(SCC(=O)Nc2nccs2)nnc1-c1ccco1	4%	/	-5.2%	/	2.8%	-14%	-5.3
Cc1ccc(NC(=O)CN2CCCC2c2cccs2)cc1S(=O)(=O)N1CCCCC1 (stereo not drawn)	?	/	-3.2%	/	0.7%	9%	-3.5
COc1cc(CNc2nc3ccccc3n2Cc2ccccc2)ccc1O	/	/	0.4%	/	7.1%	-6%	-1.2
CCOc1ccc(NC(=O)Cn2nnc(-c3ccccc3NC(=O)c3cccs3)n2)cc1	12%	4.2	12%	?	6.8%	7%	-1.1
Cc1onc(-c2c(F)cccc2Cl)c1C(=O)NCc1ccc(F)cc1	2%	2.9	0.2%	5%	0.0%	24%	-7.8
COc1ccc(CCN2CC(C(=O)N(C)CCn3nc(C)cc3C)CCC2=O)cc1 (stereo not drawn)	8%	/	-3.8%	11%	1.7%	?	0.6
O=[N+]([O-])c1ccc(N2CCCC2)nc1	-4%	4.1	/	8%	0.7%	18%[15.4 µM]	-1.7
CCOC(=O)C1=C(C)N(CCCCCC(=O)O)C(=O)NC1c1ccccc1OS(=O)(=O)c1ccc(C)cc1 (stereo not drawn)	-18%	/	1.8%	/	1.1%	/	0.3
N#Cc1c(-c2ccccc2)nc(SCC(=O)Nc2ccccc2)[nH]c1=O	14%	-0.1	-3.3%	34%[activator]	2.9%	?	-0.2
O/N=C/C1=C(Cl)c2ccccc2CC1	/	-1.0	/	-6%	0.3%	17%[15.4 µM]	3.5
CC(=O)Nc1ccc(NC(=O)C(C)Oc2ccccc2F)cc1 (stereo not drawn)	-2%	-1.0	-7.7%	12%	-0.8%	-19%	1.7
Cc1cccc(NS(=O)(=O)c2cccc(C(=O)N3CC(C)OC(C)C3)c2)c1 (stereo not drawn)	-9%	/	3.4%	/	0.8%	11%	-3.2
COC(=O)N/N=C/c1ccc([N+](=O)[O-])s1	5%	-0.1	-1.9%	-13%	-1.6%	5%	0.4
CCOc1ccccc1Oc1cn[nH]c1-c1ccc(OCC(=O)NN)cc1O	-3%	-2.7	-0.8%	5%	2.9%	-5%[15.4 µM]	-0.1
Cc1c(C)n2c(SCC(=O)NC3CCCCC3)nnc2[nH]c1=O	-1%	/	/	/	-0.8%	-1%[15.4 µM]	-1.4
Cc1ccc(NC(=O)C2CCCN(C(=O)c3ccc(Cl)cc3)C2)c(C)c1 (stereo not drawn)	3%	0.2	/	?	-0.5%	-18%[15.4 µM]	-2.3
CCN1CCN(Cc2ccc(NC(=O)c3cc(NC(=O)c4cnn(-c5ccccc5)c4N)cc(OC)c3)cc2C(F)(F)F)CC1	8%	-1.1	-3.6%	-16%	-1.8%	/	-3.9
COc1ccccc1COc1cccn2c(N(C)C(=O)CCC3CCCC3)c(C)nc12	/	/	-2.8%	/	?	/	5.0
Cc1cc(C)c(NC(=O)CSc2nc3ccc(NC(=O)CSc4nnnn4-c4ccccc4)cc3s2)c(C)c1	12%	3.5	1.5%	-2%	-0.5%	-22%	0.2
C[C@H](CO)N1C[C@H](C)[C@@H](CN(C)Cc2ccccc2)Oc2ccc(NC(=O)CCCCCC(=O)Nc3ccccc3N)cc2C1=O	-2%	/	1.9%	/	3.9%	-51%[inhibitor]	2.6
COCCNS(=O)(=O)c1ccc(C)c(C)c1C	/	5.1	/	-5%	1.5%	-3%[15.4 µM]	-1.9
CC(=O)Nc1nc(S(=O)(=O)c2ccc(C)cc2)c(Cl)s1	-28%	0.3	4.9%	0%	-0.3%	4%	-0.8
O=C(O)c1ccc2c(c1)NC(=O)C(N1CCCC1)S2 (stereo not drawn)	10%	6.3	-5.4%	?	-8.0%[38.3 µM]	-51%[inhibitor]	-1.6
COc1cccc(CNC(=O)C2CCCN(S(=O)(=O)c3cccc4nonc34)C2)c1 (stereo not drawn)	-1%	1.7	-1.3%	14%	-0.2%[38.3 µM]	2%	-0.7
COc1ccccc1C(=O)NCCC(=O)NC1CCC(C)CC1 (stereo not drawn)	8%	/	-1.8%	/	0.0%	-15%	-1.7
CCOC(=O)c1[nH]c(C)c(C(=O)N2CCN(c3ccccc3OC)CC2)c1C	-6%	1.1	/	4%	0.1%	-2%	-4.9
O=C(O)c1cc(NC(=S)NC(=O)C(c2ccccc2)c2ccccc2)ccc1Cl	-9%	1.0	/	-7%	0.6%	?	1.4
CCN1CCN(C(=O)CSc2nc3c(c(=O)n(C)c(=O)n3C)n2C)CC1	6%	/	/	5%	3.0%	?	1.6
COc1ccc(-c2sc(NC(C)=O)nc2-c2ccccc2)cc1	-14%	6.0	-17%	-4%	4.6%	-4%	2.6
Cn1cccc1C(=O)C(=O)Nc1cc(Cl)cc(Cl)c1	-8%	3.3	1.8%	3%	7.0%	-13%	0.3
CCc1ccc(N2C(=O)C(Cl)=C(N3CCOCC3)C2=O)cc1	-21%	4.5	1.5%	3%	-0.5%	1%	-0.7
O=C(Nc1cccc(C(F)(F)F)c1)c1csc([C@@H]2O[C@H](CO)[C@@H](O)[C@H]2O)n1	/	/	-0.1%	/	-0.7%	/	-4.0
O=C(CSc1nc2[nH]ncc2c(=O)[nH]1)Nc1cc(C(F)(F)F)ccc1Cl	/	/	-0.5%	/	0.0%	?	2.3
COc1cccc(-c2nnn(CC(=O)N(CC(C)C)C3CCS(=O)(=O)C3)n2)c1 (stereo not drawn)	-27%	/	1.2%	/	0.4%	-5%[15.4 µM]	-1.7
COc1ccc2nc(NC(=O)CSc3nc(C)cc(=O)[nH]3)sc2c1	-10%	6.2	-5.1%	-7%	1.4%	-3%	-0.2
CC(=O)Nc1ccc(S(=O)(=O)NCC2CCC(C(=O)NCCCN3CCCC3=O)CC2)cc1 (stereo not drawn)	10%	6.4	-3.4%	3%	-0.8%	-29%	-2.7
Cc1cc(C)cc(OCC(=O)NNC(=O)c2cc3ccccc3o2)c1	-1%	0.5	/	11%	0.5%	2%	4.1
Nc1c([N+](=O)[O-])cc2c3c(cccc13)CC2	/	/	-3.8%	/	-0.7%	/	-9.2
Cc1ccc(S(=O)(=O)N2CCCCC2)cc1NC(=O)COC(=O)Cc1cccc2ccccc12	-26%	/	-0.4%	6%	-0.2%	2%[15.4 µM]	-2.2
O=C(COC(=O)c1ccc2c(c1)OCCO2)Nc1ccccc1C(F)(F)F	/	/	-1.5%	/	2.9%	-71%[inhibitor]	1.3
COc1cc(NC(=O)c2ccc(-c3cccc(F)c3)o2)ccc1NC(=O)c1ccccc1Cl	-7%	/	?	/	-1.7%	-21%	2.6
COc1cccc(CN2CC(C(=O)NCc3ccc(C)o3)CCC2=O)c1 (stereo not drawn)	8%	1.1	0.8%	-29%	-1.6%	1%	-5.8
O=C(NCCc1ccncc1)Nc1ccc(Cl)cc1	5%	-2.8	0.9%	18%	2.0%	-5%	-2.1
COc1ccc(C(=O)C2CCCN(Cc3nc4ccccc4nc3C)C2)cc1OC (stereo not drawn)	-1%	1.2	/	12%	0.0%	19%	-2.2
